Assay outcomes: PubChem, ICCB-Longwood Screening Facility, Harvard Medical School
BmaI1 – BmaI1 acyl-homoserine lactone synthase inhibition – biochemical, fluorescence intensity, with counterscreen (AID 720554) | BmaI1 enzyme assay, fluorescence intensity; stronger effect = higher value; test concentration not given here; a few actives read low; strong numbers were not always called active | inhibition, % | actives 0.4% (n = 12,000);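 active = both replicates within 2 robust z-scores of the inhibited control and a quiet counterscreen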;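 note: 0% = uninhibited enzyme and 100% = inhibited control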
BmaI1 counterscreen – also measured in BmaI1; calls as there; inhibition, %; measured here: counterscreen; design of the counterscreen not given here;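 first of two replicates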
* = called active by the depositor. An excerpt; the hit share may differ from the screen's.

SMILES | BmaI1 | BmaI1 counterscreen
CC(Sc1nnc(C(C)(C)C)n1N)C(=O)Nc1ccc(Oc2ccccc2)cc1 (centres undefined) | 11 | 2
O=C1C2C3CC4C1C1C2CC3C41 (centres undefined) | 8 | 4
COc1ccc(CN(C)C(=O)C2CC3C=CC2C3)c(OC)c1 (centres undefined) | 11 | -2
CC(C)C(NC(=O)c1ccc(Cl)cc1)C(=O)Nc1cccc(-n2cnnn2)c1 (centres undefined) | 4 | -6
COc1ccccc1C1C(C(=O)OCC(N)=O)CCC(=O)N1c1ccc(C)cc1 (centres undefined) | 16 | 4
COc1ccccc1CNC(=O)CN1CCc2ccccc2C1 | 15 | 14
COc1ccc(CCN2C(=O)CC(=O)NC2=S)cc1OC | 12 | 29
CCCc1nc2ccccc2c(C(=O)OCC(=O)NC)c1CC | 5 | 2
CC(C)Cc1ccc(C(=O)O)cc1 | 2 | 6
O=C(COC(=O)c1c(-n2cccc2)sc2c1CCCC2)Nc1ccc(F)cc1 | 40 | 14

Full records as entered above. Screens in order: BmaI1	BmaI1 counterscreen
CC(Sc1nnc(C(C)(C)C)n1N)C(=O)Nc1ccc(Oc2ccccc2)cc1 (centres undefined) is entered as 11	2
CCCc1nc2ccccc2c(C(=O)OCC(=O)NC)c1CC is entered as 5	2

Carrying on:
SMILES | BmaI1 | BmaI1 counterscreen
CCOc1ccccc1C(=O)N1CCN(C(=O)c2ccccc2)CC1 | 35 | 6
C=CCn1c(SC(C)C(=O)NC(N)=O)nnc1-c1occc1C (centres undefined) | 10 | 3
CCOc1ccc(NC(=O)CSc2nnc3ccccn23)cc1 | 6 | 4
N#Cc1ccc(OCC(=O)N/N=C/C2CC=CCC2)cc1 (centres undefined) | -9 | 36
Cc1nc(Cc2nnc(SCC(=O)c3ccc4c(c3)CCCN4S(C)(=O)=O)o2)cs1 | 6 | 7
Cc1csc(SCC(=O)c2cc(C)n(-c3ccccc3)c2C)n1 | 7 | 2
C=CCOC(=O)C1=C(C)N2CCSC2=C(C#N)C1c1ccco1 (centres undefined) | -47 | -56
CC(C)Cn1c(=O)n(C)c(=O)c2cc(C(=O)c3cc(Cl)cc(Cl)c3O)cnc21 | 6 | -2
Cc1occc(=O)c1OC(=O)c1ccco1 | -13 | -13
O=C(CCc1nc(-c2ccccc2)no1)OCc1c(Cl)cccc1Cl | 14 | 4
O=c1c2ccccc2nnn1CSc1nnc(CN2CCCC2)n1Cc1ccccc1 | 18 | 6
Cn1/c(=N/NC(=O)C2=NN(c3ccccc3)C(=O)CC2)sc2ccccc21 | 18 | -22
Nc1c(N(C(=O)CC2OC(=O)c3ccccc32)C2CCCC2)c(=O)[nH]c(=O)n1Cc1ccccc1 (centres undefined) | 4 | 0
Cc1nc(-c2cccs2)sc1C(=O)Nc1ccccc1 | 29 | 12
CC1CCc2[nH]c3ccc(C(=O)NCCCN4CCCC4=O)cc3c2C1 (centres undefined) | 30 | 9
CC(CN(C)Cc1ccccc1)OC(=O)c1cccc(F)c1 (centres undefined) | 4 | 5
O=S(=O)(Nc1ncccn1)c1ccc(NC(=S)NCCN2CCOCC2)cc1 | -12 | 4
CC(C)[C@H](NC(=O)C1CCCCC1)c1nc2ccccc2[nH]1 | 4 | 3
CCC(c1nnc(SCC(=O)NCCc2ccc(Cl)cc2Cl)o1)N(C)C (centres undefined) | 20 | 2
Cc1nn(C)c(C)c1/C=C/C(=O)N1CCN(Cc2cccc(Cl)c2)CC1 | 6 | 4
CCCCNc1nc2ccccc2n1Cc1cccc(OC)c1 | 16 | 6
CCc1ccccc1Nc1nc(N)nc(CSc2nnc(-c3cccs3)n2CC2CCCO2)n1 (centres undefined) | 8 | 0
COC(=O)c1c(-c2ccc(F)c(F)c2)cn2c1SCC2=O | -1 | 4
Cc1cc(C(=O)COc2ccc(Cl)cc2Br)c(C)n1C | 16 | -4
CC(SCC(=O)Nc1ccc(S(=O)(=O)N(C)C)cc1)C(=O)O (centres undefined) | 2 | -1
FC(F)Oc1ccc(NC(=S)NC2CCCC2)cc1 | -12 | -10
O=C(Oc1ccc2c(c1)OCO2)[C@@H]1CCCN1S(=O)(=O)c1ccc(Cl)cc1 | 30 | 14
COC(=O)c1ccc(NC(=O)CNC2CCCCCC2)cc1 | -2 | -6
CCOC(=O)c1sc(NC(=O)c2cccs2)cc1C | 10 | 12
Cc1ccc2nc(C)c(CN3CCN(C(=O)/C=C/c4ccc(C#N)cc4)CC3)n2c1 | 9 | 8
CSc1ccccc1NC(=O)CN1CCCC1 | 4 | -4
Cc1ccc(NC(=O)CN(C)C(=O)Cc2c[nH]c3ccccc23)cc1 | 21 | 20
CCCn1nc(C(=O)N(C)Cc2cccs2)c2ccccc2c1=O | 12 | 4
Cc1ccc(S(=O)(=O)N2CCOCC2)cc1C(=O)OCc1nc2ccc(Cl)cc2n1CCO | 24 | 6
O=C(CCCn1c(=O)oc2ccccc21)N1CCc2ccccc2C1 | -7 | -8
COc1ccc(C2=NN(C(=O)CNc3cccc4ccccc34)C(c3ccco3)C2)cc1 (centres undefined) | 42 | 8
Cn1ccsc1=NC(=O)c1ccc(S(C)(=O)=O)cc1 | 2 | 7
CN(C)Cc1ccccc1C#N | -4 | 1
O=C(c1nn(Cc2ccccc2)c(=O)c2ccccc12)N1CCCCC1 | 15 | 3
O=C(N[C@@H](Cc1ccccc1)C(=O)N1CCN(c2ncccn2)CC1)c1ccc(Cl)cc1 | 18 | 3
COc1cc(OC)cc(C(=O)N(C)CCOc2ccc(Cl)cc2)c1 | 4 | 8
O=C(OCc1nc2ccccc2s1)c1cccc(S(=O)(=O)N2CCCC2)c1 | 7 | 0
COC(=O)CCCN=C1SCCN1Cc1ccccc1 | 15 | 4
COc1ccc(C(C)(C)C)cc1NC(=O)COC(=O)C(C)C | 12 | 7
COCCN1C(=O)C(C)SC1c1ccc(Br)cc1 (centres undefined) | -1 | -1
O=C(NCc1cccs1)c1ccc2ncsc2c1 | 48 | 6
O=C(OCC(=O)N1N=C2/C(=C/c3ccco3)CCCC2C1c1ccco1)c1cccc(S(=O)(=O)N2CCOCC2)c1 (centres undefined) | 16 | 8
CC(C)c1nc2ccccc2n1CCc1ccccc1 | 17 | 16
S=C(NC1CC1)N(Cc1ccco1)Cc1cccs1 | 2 | 6
Cc1ccn2c(=O)cc(CNCC3(N4CCCCC4)CCCCC3)nc2c1 | 4 | -3
(listing goes on)
SMILES | BmaI1 | BmaI1 counterscreen
NC(=O)c1ccc(NC(=O)CCC(=O)N2CCN(S(=O)(=O)c3ccc(Cl)cc3)CC2)cc1 | 1 | 3
O=C(CC12CC3CC(CC(C3)C1)C2)NCC(=O)OCc1nnc(-c2ccc(Br)cc2)o1 | 4 | -2
Cc1cc(C)cc(NC(=O)c2c(C)noc2C)c1 | 18 | 12
O=C(NCCc1ccc(Cl)cc1)c1ccc(-n2cnnn2)cc1 | -2 | -1
Cn1cccc1Cc1nnc2n1CCCCC2 | 10 | -2
CC(C)(C)C1CCC(OC(=O)c2cccnc2)CC1 (centres undefined) | 1 | -5
Cc1cc(C)c(C#N)c(SCC(=O)NCCc2c[nH]c3ccccc23)n1 | 14 | 2
O=c1c2ccccc2nnn1CSc1nnc(COc2ccccc2Cl)o1 | 24 | 18
O=C(NCCN1C(=O)S/C(=C\c2cccnc2)C1=O)c1cc(S(=O)(=O)N2CCOCC2)ccc1F | 21 | 12
N#CCCn1cc(C(=O)N2CCCCC2)c(-c2ccccc2)n1 | 5 | 13
CC1CCc2c(sc(NC(=O)COn3nnc4ccccc43)c2C(N)=O)C1 (centres undefined) | 20 | -2
CC(C)(C)SCC(=O)Nc1nn2cnnc2s1 | -9 | -2
Cc1nc2ncnn2c(C)c1CC(=O)O | 5 | 5
CCOC(=O)CC1=Nn2c(C)nnc2SC1 | 5 | 4
O=C(COc1ccc(C(=O)c2ccc(F)cc2)cc1)NCCN1C(=O)CSC1=O | -1 | 7
Nc1ccccc1-c1nnc(SCC(=O)c2ccc(Cl)cc2)[nH]c1=O | 29 | 6
O=C(CSc1nncn1-c1ccccc1)c1ccc(S(=O)(=O)N2CCCC2)cc1 | 24 | 18
CC(Sc1nncn1C)C(=O)N(Cc1ccccc1)Cc1ccccc1 (centres undefined) | 16 | 14
c1ccc(SCCNCc2ccccn2)cc1 | -4 | -16
Cc1ccc(NCC(=O)NC2CCCCC2C)c(C)c1 (centres undefined) | 28 | 36
O=C(NCC1CCCO1)c1cccc(-n2cnnn2)c1 (centres undefined) | 10 | 8
CN(C/C=C/C#CC(C)(C)C)Cc1cccc2ccccc12 | 2 | 4
O=c1[nH]nc(Sc2ncnc3sc4c(c23)CCCCC4)n1CC1CCCO1 (centres undefined) | 28 | 3
Cc1ccc(NC(=O)COC(=O)CN2CCCCCC2=O)cc1C | 1 | 2
CCc1c(C)sc2nc(CC(=O)N3CCOCC3)[nH]c(=O)c12 | 7 | 4
COc1ccccc1CNC(=O)[C@H](C)N1C(=O)C2CC=CCC2C1=O (some centres undefined) | 4 | 10
N#CCc1ccc(C(F)(F)F)cc1 | 14 | 14
Cn1c(=O)[nH]c(=O)c2ccc(-c3ccccc3)nc21 | 8 | 6
CC(Sc1nnc(-c2ccccc2)o1)C(=O)N(C)c1ccccc1 (centres undefined) | 7 | 9
Cn1nc(C(=O)OCc2cc(Cl)c3c(c2)OCO3)c2ccccc2c1=O | 12 | 6
CSc1nc2ccc(NC(=O)CCc3ccco3)cc2s1 | 6 | 4
O=C(CSC1=NCCS1)N1CCCCCC1 | -8 | -10
O=C(CSc1n[nH]c(=O)[nH]c1=O)Nc1ccccc1C(=O)c1ccccc1 | 1 | 4
NC(=O)Nc1ccc(C(=O)OCC(=O)N(Cc2ccccc2)C2CCS(=O)(=O)C2)cc1 (centres undefined) | 6 | 12
Cc1nn(-c2cccc(Cl)c2)nc1C(=O)N(C)CC(=O)NCc1ccco1 | 14 | 6
O=C(c1cc2c(s1)CCC2)N1C(=O)c2ccccc2S1(=O)=O | 8 | -2
Cc1cnc(CC#N)s1 | 29 | 19
Cc1ccc(C)c(OCCC(=O)N=c2sccn2C)c1 | 26 | 10
O=C(CCCN1C(=O)c2ccccc2C1=O)Nc1ccccc1 | 20 | 10
CCCCn1c(SCc2nnc(-c3cccs3)o2)nc2cc(S(N)(=O)=O)ccc21 | 8 | 2
CN(CC(=O)Nc1ccc(F)cc1)C(=O)c1ccc2ccccc2n1 | 14 | -2

Gathered by group: the compounds so far containing a Cl atom.
SMILES | BmaI1 | BmaI1 counterscreen
CC(C)C(NC(=O)c1ccc(Cl)cc1)C(=O)Nc1cccc(-n2cnnn2)c1 (centres undefined) | 4 | -6
CC(C)Cn1c(=O)n(C)c(=O)c2cc(C(=O)c3cc(Cl)cc(Cl)c3O)cnc21 | 6 | -2
O=C(CCc1nc(-c2ccccc2)no1)OCc1c(Cl)cccc1Cl | 14 | 4
CCC(c1nnc(SCC(=O)NCCc2ccc(Cl)cc2Cl)o1)N(C)C (centres undefined) | 20 | 2
Cc1nn(C)c(C)c1/C=C/C(=O)N1CCN(Cc2cccc(Cl)c2)CC1 | 6 | 4
Cc1cc(C(=O)COc2ccc(Cl)cc2Br)c(C)n1C | 16 | -4
O=C(Oc1ccc2c(c1)OCO2)[C@@H]1CCCN1S(=O)(=O)c1ccc(Cl)cc1 | 30 | 14
Cc1ccc(S(=O)(=O)N2CCOCC2)cc1C(=O)OCc1nc2ccc(Cl)cc2n1CCO | 24 | 6
O=C(N[C@@H](Cc1ccccc1)C(=O)N1CCN(c2ncccn2)CC1)c1ccc(Cl)cc1 | 18 | 3
COc1cc(OC)cc(C(=O)N(C)CCOc2ccc(Cl)cc2)c1 | 4 | 8
NC(=O)c1ccc(NC(=O)CCC(=O)N2CCN(S(=O)(=O)c3ccc(Cl)cc3)CC2)cc1 | 1 | 3
O=C(NCCc1ccc(Cl)cc1)c1ccc(-n2cnnn2)cc1 | -2 | -1
O=c1c2ccccc2nnn1CSc1nnc(COc2ccccc2Cl)o1 | 24 | 18
Nc1ccccc1-c1nnc(SCC(=O)c2ccc(Cl)cc2)[nH]c1=O | 29 | 6
Cn1nc(C(=O)OCc2cc(Cl)c3c(c2)OCO3)c2ccccc2c1=O | 12 | 6
Cc1nn(-c2cccc(Cl)c2)nc1C(=O)N(C)CC(=O)NCc1ccco1 | 14 | 6
